# WNV protease inh – inhibitors of West Nile virus NS2B-NS3 protease; P06935; WNV NS2B-NS3 protease, fluorogenic substrate Ex360/Em465; active compounds read low; z-score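 (tested at a level between 10 and 100 µM)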; 65,000 compounds, 0.18% hits; AID 577;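 active = z-score at -3 or under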;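 note: score is relative to mean and spread of the compound wells of a plate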
# Target sequence (P06935 1371-1501 limits assumed): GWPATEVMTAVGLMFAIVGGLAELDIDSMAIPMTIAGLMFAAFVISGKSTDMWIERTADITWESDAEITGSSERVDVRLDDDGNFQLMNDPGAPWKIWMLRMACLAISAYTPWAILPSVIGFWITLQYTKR
# Target sequence (P06935 1502-1679 limits assumed): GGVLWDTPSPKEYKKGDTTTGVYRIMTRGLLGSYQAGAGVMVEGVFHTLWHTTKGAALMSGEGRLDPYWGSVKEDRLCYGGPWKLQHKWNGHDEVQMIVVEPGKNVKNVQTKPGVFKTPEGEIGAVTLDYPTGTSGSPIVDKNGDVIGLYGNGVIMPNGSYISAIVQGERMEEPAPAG
# MT1-MMP reporter – inhibitors of MT1-MMP promoter transcription, cell-based, luciferase reporter, luminescence (AID 618); MT1-MMP promoter luciferase reporter cells, luminescence; calls from a first round at 10 µM; hits with a dose series show EC50 in µM; 87,000 compounds, 0.62% hits;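 active = over half of the reporter light lost at 10 µM or EC50 under 50 µM; inactive = the rest and hits that failed the dose series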;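 note: actives suppress MT1-MMP promoter-driven transcription so potencies describe inhibitors; HT1080 fibrosarcoma cells; overnight exposure; toxic or luciferase-blocking compounds were not removed from the actives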
# Hsc70 ATP site – small molecules displacing fluorescent ligand from Hsc70 – biochemical, fluorescence polarization, primary screen (AID 568); Hsc70 fluorescence polarization, probe displacement; higher % means a stronger effect; strong numbers were not always called active; one-dose displacement, % at 20 µM; IC50 in µM for titrated hits; 83,000 tested, under 10 active;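 active = displacement above 50% without optical interference and an IC50 on retest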;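 note: ATPase domain with a fluorescein-tagged ATP probe; 0% = vehicle and 100% = excess ADP; read after one hour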
# Starred values were filed as active, the others as inactive; i = inactive; . = no result given.
SMILES,WNV protease inh,MT1-MMP reporter,Hsc70 ATP site
COc1ccccc1C(=O)NC(C)C(c1cccs1)N1CCOCC1 (stereo unspecified),0.05,i,-3.5%
COCc1cc(C)nc(SCC(=O)NCc2ccco2)c1C#N,0.1,i,-5.9%
O=C(O)c1ccccc1C(=O)NCc1ccc(F)cc1,-1.1,i,1.0%
C=C1CC2C=C(NC(C)=O)CC(C1)C2 (stereo unspecified),-1,i,3.2%
CCCNc1ncccc1C(N)=O,1.4,i,-4.2%
CC1(C)CC(=O)C(C=NCC2CCCO2)=C(O)C1 (stereo unspecified),-0.23,i,0.4%
O=C(COc1ccccc1Br)c1ccc(O)cc1O,-1,i,-4.0%
COc1cccc(NC(=O)COC(=O)c2c(-c3ccccc3)noc2C)c1,.,i,-8.1%
CSC1=N/C(=C\C=C\c2cccs2)C(=O)S1,-0.66,i,-28%
O=C(O)CN1C(=O)Nc2ccc(Br)cc2C1c1ccccc1 (stereo unspecified),0.73,i,-4.4%
Cc1ccc(-n2ncc(C#N)c2/N=C/N2CCOCC2)cc1,-1.3,i,-4.4%
N#Cc1c(-c2cccs2)cc(-c2cccnc2)nc1N,0.96,i,0.0%

# An excerpt from above in order of length of the SMILES, falling.
SMILES,WNV protease inh,MT1-MMP reporter,Hsc70 ATP site
COc1cccc(NC(=O)COC(=O)c2c(-c3ccccc3)noc2C)c1,.,i,-8.1%
COc1ccccc1C(=O)NC(C)C(c1cccs1)N1CCOCC1 (stereo unspecified),0.05,i,-3.5%
N#Cc1c(-c2cccs2)cc(-c2cccnc2)nc1N,0.96,i,0.0%

# (next part)
SMILES,WNV protease inh,MT1-MMP reporter,Hsc70 ATP site
NC(=O)CC(NC(=O)OCc1ccccc1)C(=O)O (stereo unspecified),-0.68,i,-2.9%
O=C(OCC#CCSc1nc2ccccc2o1)c1ccco1,0.67,i,-5.1%
Cc1cc(C)cc(-n2nnnc2SCC(=O)Nc2cccc(NC(=O)c3ccco3)c2)c1,1.7,i,1.6%
CCOC(=O)c1ccc(NC(=O)CSc2nnc(Cn3c(=O)sc4ccccc43)n2C)cc1,-0.53,i,2.9%
CCCN(CCC)CCNC(=O)C(NS(=O)(=O)c1ccc2c(c1)CCC(=O)N2)c1ccccc1 (stereo unspecified),-0.33,i,-1.1%
N#Cc1nc(Cc2ccccc2)oc1NCCN1CCOCC1,0.87,i,-4.9%
O=C(CSc1nnc(-c2ccc(F)cc2)o1)c1ccc2c(c1)OCCO2,0.85,i,0.9%
CCOC(=O)Nc1sc2c(c1C(=O)OCC)CCC2,0.89,i,1.3%
CCc1ccccc1NC(=O)CC(O)(C(=O)OC)C(F)(F)F (stereo unspecified),0.27,i,-2.5%
CCOc1cc(NC(=O)C2CCCO2)c(OCC)cc1NC(=O)C1CC1 (stereo unspecified),1.8,i,-4.8%
O=C(/C=C/Nc1ccccc1)c1ccccc1,.,i,-2.2%
CC1CC(C)CN(c2nc3c(c(=O)n(C)c(=O)n3C)n2CCSc2ncccn2)C1 (stereo unspecified),-0.48,i,1.9%

# Entries from the list above containing four or more nitrogen atoms (7):
SMILES,WNV protease inh,MT1-MMP reporter,Hsc70 ATP site
Cc1ccc(-n2ncc(C#N)c2/N=C/N2CCOCC2)cc1,-1.3,i,-4.4%
N#Cc1c(-c2cccs2)cc(-c2cccnc2)nc1N,0.96,i,0.0%
Cc1cc(C)cc(-n2nnnc2SCC(=O)Nc2cccc(NC(=O)c3ccco3)c2)c1,1.7,i,1.6%
CCOC(=O)c1ccc(NC(=O)CSc2nnc(Cn3c(=O)sc4ccccc43)n2C)cc1,-0.53,i,2.9%
CCCN(CCC)CCNC(=O)C(NS(=O)(=O)c1ccc2c(c1)CCC(=O)N2)c1ccccc1 (stereo unspecified),-0.33,i,-1.1%
N#Cc1nc(Cc2ccccc2)oc1NCCN1CCOCC1,0.87,i,-4.9%
CC1CC(C)CN(c2nc3c(c(=O)n(C)c(=O)n3C)n2CCSc2ncccn2)C1 (stereo unspecified),-0.48,i,1.9%

# Remaining list, next part
SMILES,WNV protease inh,MT1-MMP reporter,Hsc70 ATP site
CCn1c(SCC(=O)Nc2cc(OC)ccc2OC)nnc1C1CCCCC1,-0.98,i,-7.9%
CCOC(=O)Nc1cccc(Cl)c1C,-0.49,i,-7.1%
COCC(=O)N(C)C1(c2nnnn2CCOC(=O)Nc2ccc(Cl)cc2)CCCC1,-2.7,i,-5.5%
COCCN1CN=C(Nc2nc(C)c3ccc(C)cc3n2)NC1,-1,i,1.3%
O=C(O)CCCC(=O)Nc1ccccc1Br,1.6,i,-2.2%
COCCCNc1nc2ccccc2nc1NS(=O)(=O)c1cccs1,-1.6,i,1.0%
Cn1c(=O)cc(SCC(=O)NCCCN2CCN(c3ccc(F)cc3)CC2)c2ccccc21,1.5,i,-3.5%
Cc1cc(=O)n2nc(N3CCCC(C(=O)N4CCN(c5ccccc5)CC4)C3)sc2n1 (stereo unspecified),-0.78,i,6.0%
O=C(c1ccco1)N(Cc1cc2ccccc2[nH]c1=O)CC1CCCO1 (stereo unspecified),.,i,0.6%
CCc1nc(SCC(=O)Nc2cc(C)on2)n[nH]1,1.1,i,-6.3%
c1cnc2ccc(C(c3nnnn3C3CCCCC3)N3CCCCC3)cc2c1 (stereo unspecified),.,i,-4.6%
CN(C)c1nc2c(c(=O)n(C)c(=O)n2C)n1Cc1ccccc1,-1.4,i,1.1%
CCOc1ccc(C2C(C#N)=C(N)Oc3cc(C)n(CCN4CCOCC4)c(=O)c32)cc1OCC (stereo unspecified),1,i,-2.1%
O=C(NCc1ccco1)C(c1ccccc1)N(Cc1ccccc1)C(=O)Cn1nnc2ccccc21 (stereo unspecified),.,i,0.3%
O=c1cc(-c2ccccc2)[nH]c2[nH]n(-c3ccccc3)c(=O)c12,-0.53,i,-4.2%
CC(=O)NC(CCS(C)(=O)=O)C(=O)Nc1cc(Cl)ccc1Cl (stereo unspecified),-0.4,i,-0.1%
CC1CCN(S(=O)(=O)c2cccc(S(=O)(=O)N3CCOCC3)c2)CC1,.,i,5.1%
CC12CCC(c3c(CO)nn(-c4ccccc4)c31)C2(C)C (stereo unspecified),.,i,4.4%
N=c1c(-c2nc3ccccc3[nH]2)cc(C(=O)c2cccs2)nn1-c1ccc(Cl)cc1,.,i,-0.2%
CCCCOC(=O)Nc1ccc(S(=O)(=O)Nc2cc(C)nc(C)n2)cc1,0.85,i,-4.1%
CCOc1cc(C2NC(=O)NC(C)=C2C(C)=O)cc(Cl)c1OCC(=O)O (stereo unspecified),.,i,5.7%
O=C(COc1nsnc1N1CCOCC1)N1CCOCC1,0.15,i,-2.3%
CCC(=O)Nc1nnc(SCC(=O)Nc2ccc(F)cc2)s1,-1.8,i,-1.1%
O=C(Nc1nccs1)c1ccc(COc2ccc(F)cc2)o1,1.4,i,-5.1%
CCOC(=O)c1c(C)[nH]c(C)c1C(=O)COC(=O)c1cccc(S(=O)(=O)N(CC)CC)c1,.,i,1.7%
N#CCc1nc2n(n1)Cc1ccccc1-2,-1.3,i,-3.0%
CCN1CCN(c2ncnc3c2cnn3-c2ccccc2)CC1,0.99,i,1.9%
CCCc1nc2ccccc2c(C(=O)OCC(=O)c2ccc3c(c2)NC(=O)CO3)c1CC,.,i,7.4%
O=C(COC(=O)c1cc(S(=O)(=O)N2CCOCC2)ccc1Cl)Nc1ccc2c(c1)OCO2,-0.1,i,-2.7%
CCn1cc(C2=NOC(C(=O)Nc3ccccc3C(=O)OC)C2)c(C)n1 (stereo unspecified),0.07,i,-2.2%
CCCCc1[nH]c(=O)c(C#N)c2c1CSC(C)(C)C2,0.0063,i,-7.5%
COc1ccc(N(CC(=O)NCc2cccc(OC)c2)S(=O)(=O)c2c(C)noc2C)cc1,0.18,i,3.6%
COc1ccc(-c2nn(-c3ccccc3)cc2C(=O)Nc2nc(CC(C)=O)ns2)cc1,-0.33,i,0.7%
CCCCNc1ncnc2c1cnn2-c1ccc(Cl)cc1,-0.85,i,1.8%
COC(=O)C(C)Sc1nc2c(c(=O)n1-c1ccccc1)SCC2 (stereo unspecified),-0.6,i,4.2%
CCC(=O)Nc1ccc(N2CCN(Cc3ccccc3)CC2)cc1,-0.65,i,-1.0%
O=C(Nc1ccc2nc(-c3cccs3)c(-c3cccs3)nc2c1)N1CCOCC1,0.55,i,-1.7%
CCOC(=O)CSc1nc(N)c(C(=O)Nc2ccc(N(C)C)cc2)s1,0.69,i,-4.5%
Cc1oc(-c2ccccc2)cc1C(N)=O,-0.31,i,2.7%
Cc1ccc(C(=O)n2nc(-c3ccco3)nc2N)cc1,.,i,-5.6%
COc1ccc(C(c2nnnn2C2CCCC2)N2CCN(C3CCCC3)CC2)cc1OC (stereo unspecified),-0.5,i,1.7%
COc1ccc2nc(NC3=NCCC3)sc2c1,0.29,i,3.2%
Cc1ccc(NC(=O)CSc2nc3c(c(=O)[nH]2)CCC3)cc1C,2,i,-0.1%
CCCn1c(SCC(=O)Nc2cccc(C)n2)nnc1-c1ccco1,-0.06,i,-0.1%
N/C(Cc1ccc(Cl)cc1)=N\OC(=O)c1ccccc1,.,i,-3.4%
CCCN(Cc1cc2ccc(C)cc2[nH]c1=O)C(=O)c1ccccn1,-0.83,i,-8.7%
CC(=O)Oc1ccc2oc(C)c(C(=O)N3CCOCC3)c2c1,-1.1,i,-1.0%
Nc1nonc1-c1noc(-c2ccccc2Br)n1,1.1,i,-3.5%
Cc1nc(C)c(C(=O)C2=C(O)C(=O)N(CCCn3ccnc3)C2c2ccccc2)s1 (stereo unspecified),-0.89,i,6.2%
COc1nc(NCCN2CCOCC2)nc(Nc2ccccc2)n1,1,i,-5.3%
CCN(CC(O)Cn1c2ccccc2c2ccccc21)S(=O)(=O)c1ccc(C)cc1 (stereo unspecified),.,i,-2.3%
O=C(Nc1ccccc1-c1nnn(CC(=O)N2CCN(c3ccccc3)CC2)n1)c1cccs1,-0.22,i,-2.1%
O=C(O)CN1C(=O)C2C3C=CC(C3)C2C1=O (stereo unspecified),-1.1,i,6.8%
COC(=O)c1ccc(NC(=O)CSc2nc(C)cc(=O)[nH]2)cc1,.,i,-0.1%
O=C(CSc1n[nH]c(-c2cccs2)n1)NCc1ccc2c(c1)OCO2,.,i,2.4%
O=C(CNCC1CCCO1)N1CCCc2ccccc21 (stereo unspecified),-1.2,i,-5.5%
CCCN1C(=O)C(O)(C2CC(=O)CC(C)(C)O2)c2ccccc21 (stereo unspecified),-1.6,i,9.4%
CCOC(=O)c1cccc(NC(=O)CSc2nc3cccnc3n2C)c1,0.83,i,1.2%
COc1ccc(CNC(=O)C2CC(c3cccc(OC)c3)=NO2)cc1 (stereo unspecified),-0.49,i,1.6%
COC(=O)C(=O)Nc1nnc(COc2ccccc2)s1,.,i,-1.3%

# Continued.
SMILES,WNV protease inh,MT1-MMP reporter,Hsc70 ATP site
COCC(C)NCc1cccc(C)c1 (stereo unspecified),.,i,4.6%
O=C(CN1CCSCC1)N/N=C/c1ccccc1F,.,i,3.2%
O=C(CSc1nnc(-c2ccccc2F)o1)OCc1ccccc1,-0.64,i,4.7%
Cc1ccc(Nc2cccccc2=O)cc1,-0.76,i,4.1%
O=C(Nc1cccc2cccc(NC(=O)c3ccco3)c12)c1ccco1,-1.4,i,-16%
CCCCN(C)CCC(=O)Nc1ccc(OC)cc1OC,0.22,i,0.8%
Cc1ccc(CNc2nc(C)nc3sc4c(c23)CCC4)cc1,.,i,0.8%
O=C(CN1CCN(c2ccccc2F)CC1)Nc1ccccc1F,-1.6,i,-2.4%
[N-]=[N+]=CC(=O)CCCN1C(=O)c2ccccc2C1=O,-1.7,i,-0.2%
Cc1ccccc1NS(=O)(=O)c1ccc(OCC(=O)N2CCCCC2)cc1,.,i,-3.3%
O=C(c1ccccc1)c1nc[nH]c1C(=O)Nc1ccccn1,-1.2,i,-3.6%
COc1ccc(NC(=O)CSc2nnc(Cc3cccs3)n2-c2ccc(C)cc2)cc1,.,i,-1.3%
CCOC(=O)CC1=Nc2ccccc2NC(=O)C1,-0.03,i,-6.9%
CC(=O)Oc1ccc2cc(-c3nc4ccccc4n3C)c(=O)oc2c1,3.5,i,24%
Oc1ccccc1C(=S)N1CCCCCC1,0.1,i,-2.1%
CC(C)Cc1nc(N2CCOCC2)c(C#N)c2c1COC(C)(C)C2,-0.38,i,4.1%
CCOC(=O)C(NC(=O)c1ccccc1)(Nc1nnc(C)s1)C(F)(F)F (stereo unspecified),.,i,3.0%
N#Cc1ccsc1NC(=O)COC(=O)CCCSc1nc2ccccc2s1,-0.59,i,-10%
Cc1nn(C(=O)CN2C(=O)c3ccccc3C2=O)c(C)c1Br,-1.2,i,1.5%
CCc1ccccc1NC(=O)c1nnn(CC(=O)Nc2ccccc2C)c1N,1.1,i,4.9%
Cc1ccc(C(=O)NNC(=O)Cc2ccccc2)cc1,.,i,3.5%
Cc1cc2ccccc2n1CCNC(=O)c1ccccc1,0.42,i,14%
COc1ccccc1CC(=O)NC1CC(C)(C)NC(C)(C)C1,-1.4,i,-5.2%
CC(=O)C1=C(C)NC(SCC(=O)c2ccc(Cl)cc2)=C(C#N)C1c1ccco1 (stereo unspecified),-0.47,i,-16%
CCOC(=O)c1cnc(SCC(=O)N2CCN(c3ccccc3)CC2)nc1N,0.32,i,1.0%
CC(NC(=O)COc1ccc(Br)cc1)C(=O)O (stereo unspecified),0.82,i,1.2%
Cc1ccc(S(=O)(=O)NCC(=O)OCC(=O)c2cccs2)cc1,2.1,i,-9.4%

# Screening data (PubChem)
